# Screening results as filed in PubChem BioAssay.
# ugtP null kill: kills S. aureus RN4220 lacking UgtP. 0.54% of 330,000 active. growth inhibition, % (no concentration beside the values). AID 1259309. S. aureus RN4220 ugtP deletion, OD600 growth, 16 h; some inactives read as strong as hits;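 active = z-score under -3 and OD600 up to 0.15 on both plates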;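 also: plate controls were untreated wells for no effect and antibiotic for full effect; wells of about 80 µL received 100 nL stock; the first replicate is given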
# RN4220 kill: S. aureus RN4220 growth inhibition | inhibition, % (no concentration beside the values) | OD600, 16 h | 0.33% of 330,000 active | AID 1259311;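 active = z-score of -3 or lower and OD600 up to 0.18 on both plates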;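 also: plate controls were untreated cells for no effect and reference antibiotic for full effect; stock transfer was 100 nL into about 80 µL; one replicate is shown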
# PrP UTR inh: suppresses PrP 5' UTR mRNA reporter expression; cell-based PrP 5' UTR mRNA reporter, plate reader; inhibition, % (test concentration not listed); 0.35% of 340,000 active;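 active = every replicate at 50% or more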;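 also: 0 = median of the neutral control wells; tested in H4 reporter cells; numbers are from one replicate; inactives centre near -14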
# Bead autofluor: flagged as autofluorescent in microsphere protease counterscreen | compound autofluorescence counterscreen, microsphere flow cytometry; hits give high values | fluorescence intensity (test concentration not listed) | 3.1% of 360,000 active | AID 624483;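 active = at least 3 SD above the mean of all compounds, about 16000 in these data; inconclusive = too few beads counted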;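 also: 100 nL of 1 mM stock went into each well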
# BJeLR lethal: kills HRASV12-expressing BJeLR cells; BJeLR (HRASV12) viability, CellTiter-Glo ATP luminescence, 48 h; reference of the scale not given here; inhibition, % (no concentration beside the values); 0.17% of 300,000 active;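 active = replicate mean above 50%; inconclusive = above 50% but judged a plate artefact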;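 also: 50 nL library stock added to about 25 µL; numbers are from one replicate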
# Mtb hypoxia rep: Mtb hypoxia fluorescent reporter inhibition | M. tuberculosis hypoxia-regulated fluorescent reporter, fluorescence | 0.1% of 300,000 active | fluorescence inhibition, % (concentration not given with the values);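 active = 35 to 45% if threefold the growth effect, above 45% if 1.5-fold the growth effect; inactive = the rest, general growth blockers included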;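 also: wells of about 50 µL received 100 nL stock; 0% = vehicle wells and 100% = reference inhibitor wells; whole bacteria with a GFP reporter of the hypoxia response; strong numbers were not always called active; many hits fall short of the cut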
# Mtb hypoxia rep growth: recorded beside Mtb hypoxia rep, whose call it bears; growth inhibition, %; measured here: M. tuberculosis growth (absorbance);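 0% = vehicle and 100% = reference antibiotic; read after six days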
# An asterisk follows results filed as active; ? = inconclusive; / = not tested or not shown.
1) COc1ccc(N(CC(=O)Nc2ccc3c(c2)OCO3)S(=O)(=O)c2ccccc2)cc1
2) O=C(Nc1cc(Cl)ccc1Cl)C1Cc2ccccc2O/C1=N\O (configuration not stated)
3) Cc1cccc(C(=O)NC2CC3CCCC(C2)N3C(=O)Nc2ccccc2)c1 (configuration not stated)
4) COc1ccc(-c2csc(-c3ccc(O)cc3)n2)cc1
5) COc1ccc2nc(C)c3c(c2c1)OC(C)C3 (configuration not stated)
6) O=C(Nc1ccc(S(=O)(=O)C(F)F)cc1)c1ccc2c(=O)n3c(nc2c1)CCC3
7) CCSc1nnc(CNC(=O)c2ccccc2F)n1-c1ccccc1OC
8) Cc1ccc(-c2cc(-c3ccccc3C)[nH]n2)c(O)c1
9) COc1ccc(C(=O)O)cc1S(=O)(=O)Nc1ccccc1C(=O)NCc1ccc2c(c1)OCO2
10) COc1cccc(-c2nnc(NC(=O)c3ccc(Cl)s3)o2)c1
compound no.,1,2,3,4,5,6,7,8,9,10
Mtb hypoxia rep,0,/,-2,15,/,1,9,/,10,3
Mtb hypoxia rep growth,4,/,9,5,/,-2,9,/,3,0
RN4220 kill,2.5,/,1.2,1.8,-4.0,-1.4,2.4,-4.8,5.4,100*
PrP UTR inh,-26,-19,8,-29,5,-7,-35,-105,-6,-5
Bead autofluor,2424,3840,5823,5091,?,/,4352,3118,3178,4668
ugtP null kill,3,/,2,14,-7,-16,7,19,5,100*
BJeLR lethal,5,1,-4,14,-4,11,4,/,/,3

11) COCCCn1c(N)c(C(=O)NCCC(C)C)c2nc3ccccc3nc21
12) C=CCn1c(SCC(=O)NCCC2=CCCCC2)nc2ccc(Cl)cc2c1=O
13) CC(=O)c1ccc(OCCCC(=O)Nc2cccc(S(=O)(=O)N3CCCCC3)c2)cc1
14) N#CC(C#N)=NNc1ccc(S(N)(=O)=O)cc1
15) Cc1ccc(-c2ccc(=O)n(CCC(=O)N3CCN(c4cccc(C)c4)C(C)C3)n2)cc1 (configuration not stated)
16) CCOc1ccc(C2C(C(=O)OC)=C(C)N=C3SCCC(=O)N32)cc1OCC (configuration not stated)
17) O=C1NCC(Cc2cccc3ccccc23)N(CCC23CC4CC(CC(C4)C2)C3)C1=O (configuration not stated)
18) COC(=O)C1=C(CSc2nncn2C)NC(=O)NC1c1ccc(F)cc1 (configuration not stated)
19) COc1ccccc1C(=O)COC(=O)CNS(=O)(=O)c1ccc(C)c(C)c1
20) COc1ccc(-c2c(C)n([O-])c3c([n+]2=O)CCCC3)c(OC)c1
compound no.,11,12,13,14,15,16,17,18,19,20
Mtb hypoxia rep,5,/,1,/,9,/,13,6,-1,13
Mtb hypoxia rep growth,5,/,9,/,3,/,6,2,-2,0
RN4220 kill,1.9,-5.0,-6.3,9.2,3.9,5.2,2.8,1.2,2.9,1.9
PrP UTR inh,-12,3,-25,-9,-15,-3,/,-12,-12,-16
Bead autofluor,8710,5017,2999,4803,3196,3283,/,15497,/,6767
ugtP null kill,-10,-8,-3,-6,-11,2,12,9,1,5
BJeLR lethal,-5,-1,/,-12,8,-2,/,-4,-2,-1

21) CCCOC(=O)Nc1ccc(S(=O)(=O)Nn2cnnc2)cc1
22) COc1ccc(NC(=O)c2cc(S(=O)(=O)Nc3ccc(OC)cc3)cs2)cc1
23) Cn1c(SCC2CCCO2)nnc1-c1ccc([N+](=O)[O-])cc1 (configuration not stated)
24) Cc1cccc(NC(=O)N2CCCc3ccccc32)c1C
25) Cc1ccc(NC(=O)CN(C)C(=O)Cc2coc3cc(C)c(C)cc23)cc1
26) Cc1cc(SCC(=O)Nc2ncc(Cl)cc2Cl)nc2ccccc12
27) COCCn1c(N)c(C(=S)NC(=O)c2cccs2)c(=O)[nH]c1=O
28) CN(C)c1ccc(NC(=O)N2CCOCC2)cc1
29) C=CC(=O)Oc1ccc(N2Cc3ccccc3C2=O)cc1
30) COc1ccc(N2CCN(C(=O)c3ccc(Cn4c(=S)[nH]c5ccc(N6CCOCC6)cc5c4=O)cc3)CC2)cc1
compound no.,21,22,23,24,25,26,27,28,29,30
Mtb hypoxia rep,6,-7,/,-2,-14,7,-1,17,10,7
Mtb hypoxia rep growth,-3,2,/,8,-4,13,4,15,3,4
RN4220 kill,6.2,-0.7,/,1.4,0.0,15,4.3,5.7,2.0,1.3
PrP UTR inh,-26,-27,-11,-16,4,-32,4,-44,/,-35
Bead autofluor,10933,4960,9250,5540,4309,8087,4824,2754,/,4504
ugtP null kill,3,19,/,5,2,-11,6,5,2,8
BJeLR lethal,-3,6,7,0,/,14,-4,7,-2,7

31) O=C(O)c1cccc(COCC(F)(F)C(F)F)c1
32) CC1CCCN(CCCNC(=O)c2ccc(NC(=O)C3=CSCCO3)cc2)C1 (configuration not stated)
33) O=C(NN=Cc1cc([N+](=O)[O-])ccc1O)c1cccc(NC(=O)c2cccc(Cl)c2)c1
34) COCC1CCCCN1Cc1cn[nH]c1-c1ccc2cc(OC)ccc2c1 (configuration not stated)
35) Cc1cccc[n+]1C1C(c2ccc([N+](=O)[O-])cc2)C(C#N)=C(C(=C=[N-])C#N)NC1(O)C1CC1 (configuration not stated)
36) O=C(NC(=S)N(Cc1ccccc1)c1ccccn1)C1CCCCC1
37) CC1(C)Cc2nc3sc(C(=O)NCCCO)c(N)c3cc2CO1
38) COc1cc(CN2CCc3c([nH]c4ccccc34)C2)cc(OC)c1
39) Cc1cc2ccccc2n1CCNC(=O)Cc1cccc2ccccc12
40) CCCCn1c(=O)[nH]c(=O)c2c1nc(-c1ccc(OCCC)c(OCC)c1)n2C
compound no.,31,32,33,34,35,36,37,38,39,40
Mtb hypoxia rep,2,-3,11,8,4,4,2,4,1,3
Mtb hypoxia rep growth,12,7,9,4,0,0,-1,4,10,-2
RN4220 kill,2.6,1.5,13,0.7,3.4,3.6,-0.1,-3.7,-17,2.5
PrP UTR inh,-16,-15,/,-17,-13,-13,-47,-41,-29,-10
Bead autofluor,11025,5666,/,3206,4009,2274,4231,18016*,1162,4794
ugtP null kill,-4,3,3,1,17,3,5,3,-5,4
BJeLR lethal,1,-9,/,-10,0,-16,-1,-3,3,-11

41) N#CCCn1c(SCC(=O)N2CCN(S(=O)(=O)c3ccccc3)CC2)nc2ccccc21
42) Cc1oc(-c2cccs2)nc1CN1CCN(CCC(C)C)C(CCO)C1 (configuration not stated)
43) COC(=O)c1sccc1NC(=O)c1ccc(C(C)C)cc1
44) CCOC(=O)C1=C(COC(=O)[C@H](C)NS(=O)(=O)c2ccccc2F)NC(=O)NC1C (some centres not stated)
45) COc1ccccc1C(=O)COC(=O)C(CCSC)NC(=O)COc1ccccc1 (configuration not stated)
46) CCCCCCC(=O)Nc1nc(C)c(-c2csc(Nc3cc(OC)ccc3OC)n2)s1
47) COc1c(C=NNc2ccc(C(=O)O)cc2)c(CCN(C)C(C)=O)cc2c1OCO2
48) COC(=O)c1ccsc1NC(=O)CSc1nnnn1-c1ccccc1SC
49) Cc1cccc(NC(=O)c2ccco2)c1C(=O)O
50) COc1ccc(-c2nnc3n(CCc4ccccc4)c(=O)c4ccccc4n23)cc1OC
compound no.,41,42,43,44,45,46,47,48,49,50
Mtb hypoxia rep,/,12,17,3,9,2,11,12,6,/
Mtb hypoxia rep growth,/,5,7,2,6,8,-2,8,17,/
RN4220 kill,-1.1,2.0,12,6.2,5.4,-1.5,3.8,-0.5,2.7,/
PrP UTR inh,-19,-7,0,-23,-18,0,/,-12,/,-27
Bead autofluor,2999,3708,4270,3653,5526,3783,/,24392*,4448,2708
ugtP null kill,4,4,49,7,0,-36,1,-13,0,/
BJeLR lethal,2,0,1,/,3,3,/,21,4,-3

51) Cc1nn(-c2ccccc2)c(N2CCCC2)c1C=NNC(=O)c1cc(-c2cccs2)nc2ccccc12
52) CC(C)(C)C(=O)NC(=S)NNC(=O)c1ccc(-c2ccccc2)cc1
53) CC(=O)Nc1ccc(S(=O)(=O)NNC(=O)c2cccc([N+](=O)[O-])c2)cc1
54) CSCC[C@H](NC(=O)C1CCC(CNC(=O)[C@@H]2CCCN2)CC1)C(=O)O (some centres not stated)
55) Cc1ccc(/C=C2\S/C(=N/S(=O)(=O)c3cccs3)NC2=O)cc1
56) CC(C)CCNC(=O)CN(C(=O)Cn1nnc(-c2ccccc2F)n1)c1cccc2c1CCCC2
57) NC(=O)c1sc2nc(-c3cccnc3)ccc2c1N
58) Cc1ccc(NC(=O)CN2C(=O)CSC2=O)cc1
59) COCCCNC(=S)N1CCN(c2ccccc2)CC1
60) COCCNC(=O)C(c1ccc(F)cc1)N(Cc1ccccc1)C(=O)CCC(=O)Nc1nccs1 (configuration not stated)
compound no.,51,52,53,54,55,56,57,58,59,60
Mtb hypoxia rep,-6,8,13,-13,9,5,9,4,-7,14
Mtb hypoxia rep growth,-7,18,-1,2,-11,8,4,1,10,5
RN4220 kill,1.7,92*,0.4,2.5,43,-5.1,3.1,7.6,-0.4,4.8
PrP UTR inh,/,13,-19,/,-18,-12,/,-12,-11,-8
Bead autofluor,/,3598,2969,/,4390,20259*,4656,3121,4901,5147
ugtP null kill,10,89,9,5,38,-3,78,4,-1,-12
BJeLR lethal,/,27,-11,/,-5,-8,4,5,5,13

# Of the compounds above, two have a furan ring, fused or not:
25) Cc1ccc(NC(=O)CN(C)C(=O)Cc2coc3cc(C)c(C)cc23)cc1
49) Cc1cccc(NC(=O)c2ccco2)c1C(=O)O
compound no.,25,49
Mtb hypoxia rep,-14,6
Mtb hypoxia rep growth,-4,17
RN4220 kill,0.0,2.7
PrP UTR inh,4,/
Bead autofluor,4309,4448
ugtP null kill,2,0
BJeLR lethal,/,4

# Of the compounds above, 3 have a cyano group:
14) N#CC(C#N)=NNc1ccc(S(N)(=O)=O)cc1
35) Cc1cccc[n+]1C1C(c2ccc([N+](=O)[O-])cc2)C(C#N)=C(C(=C=[N-])C#N)NC1(O)C1CC1 (configuration not stated)
41) N#CCCn1c(SCC(=O)N2CCN(S(=O)(=O)c3ccccc3)CC2)nc2ccccc21
compound no.,14,35,41
Mtb hypoxia rep,/,4,/
Mtb hypoxia rep growth,/,0,/
RN4220 kill,9.2,3.4,-1.1
PrP UTR inh,-9,-13,-19
Bead autofluor,4803,4009,2999
ugtP null kill,-6,17,4
BJeLR lethal,-12,0,2

# Next structures follow:
61) COc1ccc2oc(=O)c(C(=O)N3CCN(c4ccccc4)CC3)cc2c1
62) O=C1c2ccccc2S(=O)(=O)N1CC1CC(c2ccccc2)=NO1 (configuration not stated)
63) COCCSc1nnc(NC(=O)c2ccco2)s1
64) C=CCn1c(=O)/c(=C/c2cc(OC)c(OC)c(OC)c2)s/c1=C(/C#N)c1nc2ccccc2n1C
65) C/C(=N\NC(=O)c1cc(-c2cccc([N+](=O)[O-])c2)n[nH]1)c1ccccc1O
66) COc1cc(/C=N\NC(=O)c2ccc(C)nc2)ccc1OC(=O)c1ccc2c(c1)OCO2
67) CN1CCN(C(=O)C23CC4CC(C)(CC(C)(C4)C2)C3)CC1
68) CC(=O)Nc1c(O)nc(C)[nH]c1=O
69) CC(C)OCCCNC(=O)Cc1ccc(F)cc1
70) O=C(/C=C/c1cccc(Cl)c1)c1ccc([N+](=O)[O-])o1
compound no.,61,62,63,64,65,66,67,68,69,70
Mtb hypoxia rep,8,0,9,/,/,/,4,5,9,/
Mtb hypoxia rep growth,0,-3,14,/,/,/,14,-6,12,/
RN4220 kill,0.8,4.5,-1.7,/,/,/,9.4,9.1,5.7,/
PrP UTR inh,-16,-71,-23,-13,1,-18,-28,/,50,-27
Bead autofluor,4094,2544,3065,2299,2007,2620,5902,/,3171,4030
ugtP null kill,9,0,10,/,/,/,-1,5,5,/
BJeLR lethal,-3,0,-14,-14,13,0,-6,-4,20,107*

71) CCC(C)c1ccccc1N1CC(C(=O)Nc2cc(S(=O)(=O)N3CCOCC3)ccc2OC)CC1=O (configuration not stated)
72) O=S(=O)(c1ccc(Cl)cc1)N1CCNCC1
73) O=C(CC(c1ccccc1)c1ccccc1)Nc1ccncc1
74) COc1ccc(-n2c(SCC#N)nnc2-c2ccc(NS(=O)(=O)c3ccc(C)cc3)cc2)cc1
75) COc1ccc(C(O)P(=O)(OCc2ccccc2)c2ccc(N(C)C)cc2)cc1 (configuration not stated)
compound no.,71,72,73,74,75
Mtb hypoxia rep,-1,-6,14,12,9
Mtb hypoxia rep growth,-3,-7,5,0,6
RN4220 kill,2.9,6.0,0.6,20,4.6
PrP UTR inh,-29,-64,-5,9,-15
Bead autofluor,5968,3776,4232,3695,4072
ugtP null kill,3,12,7,-18,6
BJeLR lethal,2,-2,4,-8,6
